TRPML1 agonist: human mucolipin-1 channel agonism; actives 0.12% (n = 410,000); activation, % (no concentration beside the values); TRPML1-expressing cells, Ca2+ dye fluorescence, FDSS; host cell line not named in the record; reference of the full effect not given here; Q9GZU1; in the data active = activation above about 50%; inconclusive = about 30% to 50%; inactive = below about 30%; note: 0% is about no effect; the text of the record puts the active cut at 80%
Target sequence (Q9GZU1 whole entry, looked up): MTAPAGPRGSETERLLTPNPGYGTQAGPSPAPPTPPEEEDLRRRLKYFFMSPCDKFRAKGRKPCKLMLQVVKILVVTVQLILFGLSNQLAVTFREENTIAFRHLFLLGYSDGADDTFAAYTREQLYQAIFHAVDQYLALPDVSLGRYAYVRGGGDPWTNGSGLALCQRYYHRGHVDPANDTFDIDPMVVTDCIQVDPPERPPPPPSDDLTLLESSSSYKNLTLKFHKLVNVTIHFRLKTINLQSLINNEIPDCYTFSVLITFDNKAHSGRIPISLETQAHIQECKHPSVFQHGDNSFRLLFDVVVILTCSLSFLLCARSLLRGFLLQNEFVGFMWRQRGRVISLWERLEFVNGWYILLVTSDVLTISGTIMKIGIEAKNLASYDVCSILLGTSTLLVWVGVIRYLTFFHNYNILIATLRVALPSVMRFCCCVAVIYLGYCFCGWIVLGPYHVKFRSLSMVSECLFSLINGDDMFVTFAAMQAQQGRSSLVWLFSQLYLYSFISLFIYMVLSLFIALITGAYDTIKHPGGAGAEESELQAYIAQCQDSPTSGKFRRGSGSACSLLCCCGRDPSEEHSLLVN
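Kinetic FDSS Ca2+ read in Tet-induced TRPML1-DL cells (ABD Ca8 dye plus quencher, 45-90 min RT loading): baseline, then compound, then 110 s agonist window; EC80 agonist 54-4 at 4uM final added afterwards for a 110 s antagonist window.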
Menin-MLL FL inh: menin-MLL binding inhibition, fluorescein peptide. 290,000 tested, under 10 active. FP activity change, % at 61.4 µM. Fluorescence polarization, fluorescein-MLL peptide displacement from menin; inconclusive = falling polarisation curve, or a change in total fluorescence; inactive = total fluorescence flat and polarisation flat or rising; no compound was filed as active; the % refers to the polarisation; negative = inhibition;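 note: % of control where 0% means no effect; inhibitors lower the polarisation; unlabelled MLL peptide was the positive control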
TRPML1 inh: inhibitors of human TRPML1 channel | Q9GZU1 | AID 624415 | TRPML1-inducible cells, Ca2+ dye fluorescence, FDSS; active compounds read low; inhibition of EC80 agonist-evoked calcium signal | actives 0.02% (n = 390,000) | activity change, negative = inhibition, % (concentration not given with the values); in the data active means activity change below about -50%; inconclusive means about -30% to -50%; inactive means above about -30%;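 note: stimulus is agonist 54-4 at its EC80 concentration; % is set by controls: 0 for no effect and ±100 for the full control effect; the text of the record puts the active cut at -80%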
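TRPML1-DL cells, Tet-induced overnight (~16 h, 37 °C) at 1,500 cells/well, were loaded with Ca8 no-wash dye plus quencher for 45-90 min at room temperature. Compounds were pinned during FDSS kinetic reading; agonist 54-4 at EC80 (4 uM final) then added.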
ClpP mod: qHTS Assay for Activators of ClpP; purified B. subtilis ClpP, FRET peptide cleavage, 20 min; ATP-dependent Clp protease proteolytic subunit (Bacillus subtilis (strain 168)), P80244; Potency, µM (titrated, usually from 57.5 µM), for inactives: at the highest dose activity change, negative = active; AID 651965, 2013; actives 1.9% (n = 340,000); active = well fitted falling curve with a large enough effect; inconclusive = small, poorly fitted or top-dose-only effect; inactive = no such curve, though single readings can be large or run the other way; note: potency is the fitted concentration of half-maximal effect; the source files actives as falling curves though it sought activators and does not explain the sign; nearly all actives have a fitted effect of over 65% in size; many hits overshoot -100%
Target sequence (P80244 whole entry, looked up): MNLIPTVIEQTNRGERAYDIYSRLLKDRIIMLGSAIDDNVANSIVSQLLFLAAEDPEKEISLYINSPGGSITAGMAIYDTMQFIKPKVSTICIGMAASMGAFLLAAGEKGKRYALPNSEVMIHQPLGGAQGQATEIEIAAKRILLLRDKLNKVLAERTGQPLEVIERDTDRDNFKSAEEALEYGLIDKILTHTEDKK
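Purified B. subtilis ClpP, 10 microg/mL final in Tris/HCl pH8 with KCl, BSA, glycerol and Tween-20, cleaved an Abz/nitrotyrosine-quenched decapeptide. Fluorescence (ex 320, em 430) was read at 0 and 20 min at room temperature. Delta was normalized to 5.8 microM ADEP and DMSO/no-enzyme controls.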
gsp agonist: agonists of gsp mutant (McCune-Albright syndrome); Potency, µM (series often up to 76.9 µM), without a hit: top-dose activation (cAMP increase), most hits filed as activators; gsp mutant cells, cAMP HTRF, 30 min; control for the full effect not named in the record; actives 0.13% (n = 340,000); active = well fitted activation curve with a large enough effect; inconclusive = small, poorly fitted or top-dose-only effect, or another doubt; inactive = no such curve, though single readings can be large or run the other way; cell line not stated here;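 note: phosphodiesterase inhibitor Ro 20-1724 added with compounds to block cAMP breakdown; potency is the fitted concentration of half-maximal effect; nearly all actives have a fitted effect of over 60% in size; about a fifth of the inactives were tested at one dose only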
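Cells stably selected in G418 were plated at 2000/well, grown 16-24 hr, then given compounds in DMSO with the PDE inhibitor […] (300 uM solution added) for 30 min at 37C; cAMP was read by HTRF.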
gsp antagonist: gsp mutant antagonism; actives 0.4% (n = 340,000); Potency, µM (series often up to 76.9 µM), inactives show at the highest dose activity change, negative = inhibition, most hits filed as inhibitors; gsp-mutant cells, cAMP HTRF, 30 min; control for the full effect not named in the record; active = falling curve of any shape with a large fitted effect; inconclusive = falling curve, mostly with a smaller effect; inactive = flat or rising curve; cell line not stated here;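 note: intracellular cAMP measured with PDE inhibitor Ro 20-1724 present during compound exposure; potency is the fitted concentration of half-maximal effect; % is set by controls: 0 for no effect and ±100 for the full control effect; nearly all actives have a fitted effect of over 65% in size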
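Cells, 2000/well, grown 16–24 h in DMEM 10% FBS with 0.5 mg/ml G418, then compounds plus […] (300 uM addition stock), 30 min at 37C. cAMP read by HTRF (cAMP-d2 and anti-cAMP antibody-K in lysis buffer) after 30 min RT.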
* = called active by the depositor; u = inconclusive; x = no result given; & = joins results of further samples; [ ] = another dose, or the depositor's remark.

Structure,TRPML1 agonist,Menin-MLL FL inh,TRPML1 inh,ClpP mod,gsp agonist,gsp antagonist
O=C(Nc1ncc(Cc2ccc(SC(F)F)cc2)s1)c1ccc(OC(F)F)cc1,13,3.5,-12,107%,2%,16%
COc1ccc2c(c1)O/C(=C\c1ccccc1C)C2=O,2.7,5.4,35,-6.8%,-54%[inhibitor],-21%
C=C1CCN([C@@H](C)C(=O)NCc2ccc(Cl)cc2)S(=O)(=O)c2ccccc21,0.7,-12,13,-2.8%,x,-15%
Cc1nn(Cc2ccc(C(=O)N/N=C/c3ccncc3)o2)c(C)c1Cl,-0.1,0.8,-4,0.7%,-11%,-12%
CCc1cccc(NC(=O)C2CCCN(S(=O)(=O)c3ccc4[nH]c(=O)ccc4c3)C2)c1 (centres undefined),0.3,4.2,3,1.3%,11%,-9%
Cc1ccccc1OCC(=O)Nc1cc(Cl)ccc1Oc1ccccc1,3.4,4.9,7,-1.3%,-2%,0%
COc1ccc(CNC(=O)c2nc(SC(C)C)ncc2Cl)cc1,1.9,x,8,-1.6%,x,x
Cc1oc(S(=O)(=O)N(C)C)cc1C(=O)Nc1ccc(Cl)cc1,-0.1,-1.2,-19,2.8%,0%,0%
O=C(NCC(c1cccs1)N1CCOCC1)c1cc(Cl)ccc1[N+](=O)[O-] (centres undefined),-0.1,x,3,x,-14%[15.4 µM],5%
COc1ccc(C(=O)NNC(=O)c2ccc(F)c(S(=O)(=O)N3CCOCC3)c2)cc1,-0.4,x,14,1.9%,-7%[15.4 µM],5%
CCN(CC)CCC(c1ccc2c(c1)OCO2)c1c(OC)cc(OC)c2c(C)cc(=O)oc12 (centres undefined),0.0,-2.2,15,x,x,x
COc1cc2cc(CCCOC(=O)c3ccco3)oc(=O)c2cc1OC,-0.2,x,-11,-9.7%,-37%,0%
CCOc1ccc2c(c1)c(=O)c(S(=O)(=O)c1ccc(C)cc1)cn2CC,1.0,x,-8,3.9%,-55%[inhibitor],-25%
O=C(COc1ccccc1)NCCSCc1ccccc1Cl,2.2,0.8,19,x,11%[15.4 µM],x
CCC1CN(C(=O)N2CCC(C(=O)NCc3cccc(F)c3)CC2)c2cc(C)ccc2O1 (centres undefined),1.0,x,-10,-1.0%,x,x

Structure,TRPML1 agonist,Menin-MLL FL inh,TRPML1 inh,ClpP mod,gsp agonist,gsp antagonist
CCn1c(SCC(=O)NCC2CCCO2)nc2cc(S(=O)(=O)N3CCCCC3)ccc21 (centres undefined),0.0,-0.9,15,0.0%,-42%[inhibitor],-13%
CCOc1ccc(NC(=O)CSc2nc3ccsc3c(=O)n2CCC(C)C)cc1,3.2,x,-6,-0.4%,x,x
O=C(CNc1cccc2ccccc12)N/N=C/c1ccc(OC(=O)/C=C/c2ccco2)cc1,-0.4,3.1,3,x,-6%,-7%
CC(=O)N(/N=C1\Sc2ccccc2C1=O)c1ccccc1,1.0,8.3,12,-0.6%,-1%,8%[15.4 µM]
COc1cc(NS(=O)(=O)c2ccc(NC(=O)CCC(=O)O)cc2)nc(OC)n1,-0.2,-0.8,-22,x,-17%,19%
O=[N+]([O-])c1ccc(S(=O)(=O)c2cccc(C(F)(F)F)c2)nc1,0.4,x,-3,x,-2%,15%
CCOC(=O)Cc1csc(NC(=O)Nc2ccccc2)n1,-1.3,-3.7,15,-0.1%,-26%,-19%
CCc1nc2ccc(C(=O)NCCNC(C)=O)cn2c1N(CC)CCOC,0.9,x,13,-2.0%,x,x
CCC(=O)N1CCc2cc(S(=O)(=O)NCCN3CCC(C)CC3)ccc21,2.3,-2.0,-2,0.9%,4%,13%
COc1ccc(CC(=O)NCCc2sc(-c3cccc(F)c3)nc2C)cc1,2.6,x,1,-10%,x,x
O=C(CSc1nc2c([nH]c3ccccc32)c(=O)n1-c1ccccc1)N1CCc2ccccc21,-0.1,x,-12,28µM*,x,x
COC(=O)c1cc(=O)[nH]c(SCc2cccc(C)c2)n1,-0.3,2.7,-17,-0.1%,0%,7%
Cc1ccc(S(=O)(=O)N(C)CC(=O)OCC(=O)NC(=O)NC(C)C)cc1,2.4,4.4,9,x,-1%[15.4 µM],-18%
Cc1cccc(NC(=O)c2cc(S(=O)(=O)N(C)c3ccc(F)cc3)ccc2Cl)n1,-0.3,x,10,-1.6%,4%[15.4 µM],4%
CCC1CCCCN1CCNC(=O)c1[nH]c(C)c(C(C)=O)c1C (centres undefined),-0.1,-7.5,4,0.7%,3%,13%

Structure,TRPML1 agonist,Menin-MLL FL inh,TRPML1 inh,ClpP mod,gsp agonist,gsp antagonist
Cc1ccc(Cl)c(NC(=O)CN2C(=O)C(C)N(c3ccc(F)cc3)C2=O)c1Cl (centres undefined),1.9,x,-15,-0.5%,-11%,x
CCOc1ccc(S(=O)(=O)Nc2ccc(F)cc2)c(C)c1C,0.5,4.5,-3,0.3%,0%,u
OCC[C@@H]1C[C@H](O)[C@@H](O)[C@]2(CCCO2)O1,0.0,x,18,0.1%,-23%,4%
O=c1ccc2ccc(O[C@@H]3O[C@H](CO[C@@H]4OC[C@](O)(CO)[C@H]4O)[C@@H](O)[C@H](O)[C@H]3O)cc2o1,-0.4,x,-2,-1.2%,x,9%
Cc1cccc(N2CCN(c3ncnc4onc(C)c34)CC2)c1C,0.2,x,-6,-0.6%,x,x
COc1ccc(NC(=O)CSc2nc(=O)n(CCN3CCOCC3)c3c2CCC3)c(OC)c1,-0.7,x,-5,-0.8%,5%[15.4 µM],-6%
COC(=O)c1ccc2c(=O)n(CCN3CCOCC3)c(=S)[nH]c2c1,1.0,1.1,6,0.3%,-13%,5%
O=C(NCc1cccnc1)C(=O)NCC(c1ccco1)N1CCN(c2ccccc2F)CC1 (centres undefined),-0.2,-2.1,-12,18µM*,32%[15.4 µM],-4%
O=C(Oc1cccc2cccnc12)c1ccc2c(c1)OCCO2,0.8,5.2,-3,-1.1%,-1%,-11%
Cc1onc(-c2c(F)cccc2Cl)c1C(=O)N1CCc2ccccc21,0.5,0.3,21,-2.1%,0%,-49%
CCOc1ccccc1C(=O)N/N=C/c1c[nH]c2ccccc12,-0.5,2.5,15,x,-13%[15.4 µM],-25%
CCOc1ccc(S(=O)(=O)N2CCN(C(=O)c3cccnc3)CC2)cc1,2.9,1.1,u,x,-10%,-2%
CC(C)(C)OC(=O)NC(CCCCNC=O)C(=O)O (centres undefined),-0.8,-0.5,-20,0.3%,u,9%
C=CCn1c(O)c2ccc(C(=O)N=NC(=O)c3ccc(F)cc3)cc2c1O,0.2,x,-24,x,-21%[15.4 µM],0%
O=C(CCC1CCCN(C(=O)c2ccc3cc[nH]c3c2)C1)N1CCN(c2ccccn2)CC1 (centres undefined),0.3,-1.3,-8,x,27%,1%

Structure,TRPML1 agonist,Menin-MLL FL inh,TRPML1 inh,ClpP mod,gsp agonist,gsp antagonist
Cc1nc(SCC(=O)N2CCOCC2)c2c(C)c(C)sc2n1,1.0,-7.8,0,x,-11%,0%
Cc1ccc(CS(=O)(=O)c2ncc(Cl)c(C(=O)Nc3nc4ccc(F)cc4s3)n2)cc1,-0.3,x,-5,-1.4%,x,x
Cc1ccc2c(c1)cc(CN(C(=O)N1CCOCC1)C1CCCC1)c1nnnn12,0.5,-0.2,-10,x,3%[15.4 µM],-3%
COc1ccc(OC)c(S(=O)(=O)Nc2ccccc2C(F)(F)F)c1,-0.5,0.7,-3,-1.3%,-16%,-30%
O=C(Cc1c(F)cccc1Cl)N1CCN(S(=O)(=O)c2cccs2)CC1,-0.7,x,-3,0.7%,-1%,-1%
CCc1cccc(CC)c1NC(=O)COC(=O)c1cccc(S(=O)(=O)N2CCc3ccccc3C2)c1,-0.1,-4.0,11,1.2%,-7%,16%
CC(Oc1ccc2c3c(c(=O)oc2c1)CCCC3)C(=O)NCc1cccnc1 (centres undefined),-1.1,x,-8,4.1%,u,4%
COc1ccc(-c2csc(NC(=O)CSc3nnc(Nc4ccccc4C)s3)n2)cc1,0.3,0.5,24,x,5%,12%
CCCSc1ccc([C@H]2N[C@@](C)(C(=O)OC)[C@H]3C(=O)N(C)C(=O)[C@@H]23)cc1OC,-0.4,x,-3,-12%,-15%,8%
N#Cc1c(-c2ccc3c(c2)OCO3)csc1N,3.9,4.9,2,-3.4%,-1%,-31%
Cc1ccc(O)c(NC(=O)C2=CC(c3ccco3)=NS(=O)(=O)N2C)c1,5.5&-0.1,1.6,17&0,2.3%&-0.1%,-29%,-8%
O=C1NC(=S)S/C1=C\c1coc2ccc(O)cc2c1=O,x,0.6,x,0.8%,u,-18%
COC(=O)CCN(c1ccccc1)S(=O)(=O)c1ccc(OC)cc1,-0.1,2.7,0,-2.0%,12%,4%
COc1ccccc1C(=O)n1nc(-c2ccccc2)nc1N,-0.3,2.2,2,7.7%,-3%,3%
COc1ccccc1C(=O)NC(=S)NNC(=O)c1sc2ccccc2c1Cl,51*,0.6,1,3.7%,-25%,-15%

Structure,TRPML1 agonist,Menin-MLL FL inh,TRPML1 inh,ClpP mod,gsp agonist,gsp antagonist
Cc1ccccc1CSCC(=O)c1c(N)n(CC(C)C)c(=O)n(C)c1=O,1.0,0.7,4,u,-68%[inhibitor],0%
Cc1nc([N+](=O)[O-])c(Br)n1CC(=O)c1ccc(Br)cc1,-0.2,5.6,27,-3.9%,-3%,-15%
CC(C)CC(=O)NC(=S)Nc1ccc(N2CCOCC2)cc1,-0.3,3.6,-6,1.9%,-10%,4%
O=C(c1cccc2ccccc12)N1CCN(Cc2ccccc2F)CC1,0.9,-4.2,-11,0.4%,-5%,5%
CCOc1ccc(NC(=O)CSCC(=O)O)cc1,-0.1,6.0,-7,1.4%,-30%,0%
CCOC(=O)C1=C(CS(=O)(=O)c2ccc(Cl)cc2)NC(=O)NC1c1ccc(O)c(OC)c1 (centres undefined),-0.6,-0.7,1,0.3%,-7%,-3%
